Screens from PubChem.
Beta apoptosis: beta cell apoptosis inhibition; protection from apoptosis, % (concentration not given with the values); INS-1E cytokine-induced death, ATP luminescence, 48 h; percent of positive-control rescue, neutral wells zero; 300,000 tested, 0.8% active;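 active = all replicates at 75% or more, or half of them and the mean; inconclusive = half reach 75% but not the mean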;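 also: 0% = cytokine-treated negative control wells and 100% = positive control rescue; higher means more ATP so stronger rescue from cytokine killing; wells of about 40 µL received 100 nL stock; the first replicate is given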
T cruzi repl: T. cruzi replication inhibition | 300,000 tested, 1.4% active | T. cruzi beta-gal in NIH3T3, luminescence, 90 h | inhibition, % (test concentration not listed);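 active = mean inhibition across valid replicates above about 55%, limit read from the data; inconclusive = mean below that limit but half or more replicates reach it; inactive = mean below it, under half of replicates reach it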;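 also: signal also drops with host cell toxicity which is not excluded here; 0% = plate median of DMSO wells and 100% = zero luminescence signal; higher percent means less beta-gal luminescence so fewer parasites; stock transfer was 50 nL into about 50 µL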
Bfl-1 A1 inh: inhibitors of the anti-apoptotic protein A1, read as caspase activation; MEF A1-2A-BIM cells, Caspase-Glo 3/7 luminescence, 3 h; percent of clofoctol response, vehicle zero; caspase activation, % (concentration not given with the values); 330,000 tested, 0.066% active; AID 2462;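 active = over half of replicate activation scores above 10%, or exactly half above 10 with the replicate mean above 10; inconclusive = replicate mean below 10 yet half the replicates above 10; inactive = over half of replicates below 10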;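 also: wells of about 30 µL received 50 nL stock; many hits fall short of the cut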
Calb FLC: affects C. albicans growth with fluconazole; C. albicans CaCi-2 (fluconazole-resistant clinical isolate) + fluconazole, Alamar Blue growth, 48 h; growth inhibition, % (test concentration not listed); 300,000 tested, 0.57% active; AID 1979;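 active = most replicates above 75%; inconclusive = exactly half above 75%; inactive = most below 75%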;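 also: all wells also contain fluconazole at 8 µg/ml as a sub-toxic cotreatment; 0% = median of DMSO wells and 100% = median of geldanamycin control wells; wells of about 8 µL received 7.5 nL stock; the first replicate is given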
AF4-AF9 inh: blocks AF4 peptide binding to human AF9 | 350,000 tested, 0.47% active | P42568 | inhibition, % at 10 µM | AlphaScreen, biotin-AF4 peptide binding to FLAG-AF9;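 active = every replicate reaching a set inhibition limit, whatever the replicate mean, cut at about 25% in these data; inconclusive = mean inhibition reaches that limit but some replicates miss it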;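 also: 0% = plate neutral control median and 100% = total signal loss; the record names both 10 and 1 µM as test concentration; the first replicate is given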
RanGTP-Impb inh: inhibitors of RanGTP-importin-beta interaction, primary screen, biochemical, FRET, CFP-Ran, YFP-importin-beta, homogeneous. cell-free CFP-Ran/YFP-importin-beta FRET ratio. inhibition, % (test concentration not listed). 300,000 tested, 1.1% active. AID 2216;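 active = most replicates above 15%; inconclusive = exactly half above 15%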;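 also: 0% = DMSO wells and 100% = Ran loaded with GDP instead of GTP; wells of about 40 µL received 100 nL stock; the first replicate is given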
LANA-H2B inh: blocks KSHV LANA binding to histone H2A/H2B; Q9QR71; cell-free LANA-H2A/H2B peptide, fluorescence polarization; inhibition, % (concentration not given with the values); 320,000 tested, 0.6% active; AID 2629; in the data active = inhibition mostly above about 10%, no sharp cut-off; inactive = mostly below about 6.7%;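 also: stock transfer was 7.5 nL into about 10 µL; 0% = median of vehicle wells and 100% = median of positive control wells; one replicate is shown; the record names a cut of 25% in any replicate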
Target sequence (Q9QR71 whole entry, looked up): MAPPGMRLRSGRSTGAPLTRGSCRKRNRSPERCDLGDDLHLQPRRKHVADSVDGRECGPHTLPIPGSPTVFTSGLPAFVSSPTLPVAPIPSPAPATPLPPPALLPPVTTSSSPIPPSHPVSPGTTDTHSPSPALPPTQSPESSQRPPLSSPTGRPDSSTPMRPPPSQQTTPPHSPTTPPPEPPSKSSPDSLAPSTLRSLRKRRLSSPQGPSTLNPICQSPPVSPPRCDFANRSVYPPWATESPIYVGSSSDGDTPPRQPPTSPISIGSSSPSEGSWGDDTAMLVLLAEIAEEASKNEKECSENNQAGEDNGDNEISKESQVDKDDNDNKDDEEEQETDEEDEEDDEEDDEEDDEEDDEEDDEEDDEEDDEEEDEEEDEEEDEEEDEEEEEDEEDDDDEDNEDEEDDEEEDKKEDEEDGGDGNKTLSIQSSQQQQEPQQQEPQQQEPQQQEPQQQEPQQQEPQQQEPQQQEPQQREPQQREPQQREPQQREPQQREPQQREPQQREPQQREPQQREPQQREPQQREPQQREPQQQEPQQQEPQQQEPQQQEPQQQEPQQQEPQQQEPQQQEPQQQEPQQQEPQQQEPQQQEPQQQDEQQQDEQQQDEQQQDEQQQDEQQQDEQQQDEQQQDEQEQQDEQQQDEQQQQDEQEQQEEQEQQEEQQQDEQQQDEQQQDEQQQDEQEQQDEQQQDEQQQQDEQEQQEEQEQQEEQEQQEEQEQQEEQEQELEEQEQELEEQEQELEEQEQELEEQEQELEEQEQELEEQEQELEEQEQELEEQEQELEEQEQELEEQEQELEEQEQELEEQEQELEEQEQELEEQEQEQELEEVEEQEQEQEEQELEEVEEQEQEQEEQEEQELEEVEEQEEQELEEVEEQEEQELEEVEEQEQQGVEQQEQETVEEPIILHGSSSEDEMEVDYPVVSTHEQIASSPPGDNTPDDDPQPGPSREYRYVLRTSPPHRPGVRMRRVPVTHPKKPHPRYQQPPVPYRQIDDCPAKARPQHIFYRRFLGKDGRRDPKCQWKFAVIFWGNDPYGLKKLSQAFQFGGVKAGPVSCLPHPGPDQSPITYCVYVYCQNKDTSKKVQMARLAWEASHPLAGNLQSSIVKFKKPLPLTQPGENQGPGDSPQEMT
Vif A3G: HIV-1 Vif–A3G interaction blockers – biochemical, TR-FRET, GST-Vif 1-94, biotin-A3G peptide, dose response retest, primary screen (AID 1117319). TR-FRET GST-Vif / biotin-A3G peptide binding; higher % means a stronger effect; test concentration not given here; strong numbers were not always called active. 260,000 tested, 0.57% active. inhibition, %, or IC50 in µM where a hit was titrated;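 active = above the screen mean plus three standard deviations and confirmed in dose response; inconclusive = results disagree or hit not tested in dose response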;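 also: Vif residues 1-94 fused to GST binding biotinylated APOBEC3G peptide 110-148; 0% = full assay without inhibitor and 100% = GST in place of GST-Vif; retest series ran down from 100 µM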
Active calls of the source: *; ? = inconclusive; / = not tested or not shown.

smiles	Beta apoptosis	T cruzi repl	Bfl-1 A1 inh	Calb FLC	AF4-AF9 inh	RanGTP-Impb inh	LANA-H2B inh	Vif A3G
Cn1c(CCN2CCCC2)nc2cc(NS(=O)(=O)c3ccc(Cl)cc3)ccc21	32	30	-0.3	-5	6.2	-1.7	0.2	-4%
COc1cccc(/C=C/C(=O)OCC(=O)NCCC2=CCCCC2)c1	-1	-4	-0.9	-16	-2.6	-1.9	3.5	3%
NS(=O)(=O)c1ccc(CNC(=S)Nc2ccc(F)c(Cl)c2)cc1	3	-10	-0.6	38	0.5	-3.3	-4.3	-4%
O=c1c(Cc2ccc(F)cc2)c(O)ccn1CC1CCCO1 (stereo not drawn)	-4	-2	0.8	-12	-0.2	0.5	-0.3	-6%
Cc1cc(/C=C(\C#N)C(=O)NCCc2c[nH]c3ccccc23)c(C)n1C	-4	0	0.1	/	-0.7	/	-1.0	/
CC(=O)c1ccc2oc3ccccc3c(=O)c2c1	-1	6	-6.2	-2	-0.6	3.5	6.8	/
CC(CCc1ccccc1)NC(=O)CNC(=O)COc1ccccc1 (stereo not drawn)	-2	5	-0.3	-11	0.1	3.8	-0.4	-3%
COc1cc(S(=O)(=O)Nc2cc(C)cc(C)c2)ccc1F	-4	4	0.3	12	2.2	1.7	-2.0	/
C(=N\Nc1nc2ccccc2s1)/c1cccs1	-4	3	-5.5	-18	/	-1.0	-0.1	1%
N#CCSc1nnc(Cc2cccs2)n1C1CCCCC1	/	10	0.5	2	/	1.5	6.3	2%
Cc1cc(C(=O)COC(=O)CNC(=O)c2ccc(Cl)c(Cl)c2)c(C)n1Cc1ccco1	-5	-3	0.9	?	-0.8	-1.1	0.8	/
BrC(=C\c1ccccc1)/C=N/N1CCN(Cc2ccccc2)CC1	6	10	1.1	-11	/	1.0	-1.3	7%
O=C(C[C@H]1C/C=C\C[C@@H](Cc2ccc(F)cc2)C(=O)O[C@H](c2ccccc2)CNC1=O)NCCO	-6	/	-0.3	/	-1.7	/	0.0	/
COCCN(C(=O)COC(=O)c1oc2ccc(OC)cc2c1C)c1c(N)n(Cc2ccccc2)c(=O)[nH]c1=O	0	8	-0.2	12	-11	3.0	3.1	-6%
CCOC(=O)N1CCC(NC(=O)Cn2cccc2C(=O)c2ccccc2)CC1	1	0	0.7	-15	/	-1.9	0.6	10%
CCCC(=O)NC(=S)Nc1ccc(NC(=O)C(C)C)c(OC)c1	-1	-5	0.5	1	1.0	0.4	4.4	/
CC1(C)Cc2ccccc2-c2nnc(SCC(=O)N3CCc4ccccc43)n21	-4	8	0.8	-3	/	-1.8	0.2	1%
COc1c(C)cc(Br)cc1C(=O)Nc1ccc(Cc2ccncc2)cc1	1	61*	-1.2	6	-0.3	1.0	-1.9	-7%
Cc1cccc(NC(=O)c2cc(-c3cc(C)cc(C)c3O)n[nH]2)c1	7	8	0.3	-7	-3.2	-1.7	-5.6	3%
CCCNC(=O)c1nn2cc(Br)cnc2c1Br	0	-3	1.8	-7	-2.5	1.7	-0.4	15%
O=[N+]([O-])c1ccc(S(=O)(=O)N2CCN=C2SCc2cccnc2)cc1	14	25	1.8	25	-1.1	-1.3	1.1	1%
O=C(Cc1ccccc1)Nc1c(C(=O)N2CCCCCC2)cnn1-c1ccccc1	-4	0	-0.3	/	/	-2.6	4.7	23%
CCOc1ccccc1N(CC(=O)NC1CCCCC1)S(=O)(=O)c1ccc(C)cc1	9	30	-1.0	-2	2.7	-2.2	4.5	/
O=C(O)CCN1C(=O)C2C3C=CC(C3)C2C1=O (stereo not drawn)	-2	-6	0.6	-3	/	1.1	-6.7	12%
Cc1ccccc1/C=C\c1nc2ccccc2c(=O)n1Cc1ccccc1	27	26	-0.5	-24	/	2.6	-6.3	/
O=C(COC(=O)CN1C(=O)C2CCCCC2C1=O)NNC(=O)c1ccc(Cl)cc1 (stereo not drawn)	-4	3	0.7	-5	-20	0.9	-1.3	-8%
CC(C)Cn1c2c(c(O)c(C(=O)Nc3nccs3)c1=O)CCCC2	4	6	0.5	0	/	-0.8	-1.7	71%
O=C(Nc1cccc(F)c1)C1CCCN(S(=O)(=O)c2cnc[nH]2)C1 (stereo not drawn)	0	-14	-0.4	1	-1.9	-7.3	0.8	/
CCCN1CCN(C(=O)Nc2cccc(C(F)(F)F)c2)CC1	-12	2	-0.2	-14	-2.1	0.3	8.2	5%
COc1ccc(-n2c(N)c(C(=O)NCc3cccnc3)sc2=S)cc1	-1	9	0.2	-9	/	0.1	0.3	7%
N#C/C(=C\Nc1ccc(Cl)cc1)S(=O)(=O)c1ccccn1	-4	-12	-2.0	-18	0.7	0.9	-1.2	1%
O=C(Oc1cccc(NC(=O)c2cccs2)c1)c1cccc(S(=O)(=O)N2CCCC2)c1	-6	2	-1.3	2	/	-1.6	-1.0	/
CC(C)(C)N1C(=O)c2ccc(C(=O)Nc3ccc(O)cc3)cc2C1=O	-2	3	-1.4	-4	3.6	-1.9	4.8	10%
Cc1ccc(-c2nnn(CC(=O)N(Cc3ccco3)C(C(=O)NC(C)(C)C)c3ccncc3)n2)o1 (stereo not drawn)	-6	-2	0.1	115*	1.7	1.6	-2.9	4%
Cc1ccccc1NC(=O)CSc1nnc(-c2ccco2)c(-c2ccco2)n1	-9	7	-0.2	-10	/	-0.3	0.0	1.2µM*
NC(=O)c1nsc(C(=O)N(c2ccc(F)cc2)C(C(=O)NCC2CCCO2)c2c[nH]c3ccccc23)c1N (stereo not drawn)	8	1	-1.2	4	3.1	-1.9	-2.1	/
CCC(=O)NC(NC(=O)CC)C(Cl)Cl	1	-12	-0.6	-5	/	-2.0	0.9	-1%
CCCCN1CN=C(Nc2nc3ccccc3o2)NC1	-8	-8	0.5	-8	/	-3.6	1.4	7%
COc1ccccc1N1CCN(C(=O)c2ccc(NC(C)=O)cc2)CC1	-12	-5	0.2	6	/	-1.1	-0.4	3%
O=C(c1cc2nc(C3CC3)cc(C(F)(F)F)n2n1)N1CCCC1	-3	-2	-0.2	4	/	2.9	-5.9	2%

Ordered by count of non-hydrogen atoms (falling): some entries from above.
smiles	Beta apoptosis	T cruzi repl	Bfl-1 A1 inh	Calb FLC	AF4-AF9 inh	RanGTP-Impb inh	LANA-H2B inh	Vif A3G
NC(=O)c1nsc(C(=O)N(c2ccc(F)cc2)C(C(=O)NCC2CCCO2)c2c[nH]c3ccccc23)c1N (stereo not drawn)	8	1	-1.2	4	3.1	-1.9	-2.1	/
O=C(Oc1cccc(NC(=O)c2cccs2)c1)c1cccc(S(=O)(=O)N2CCCC2)c1	-6	2	-1.3	2	/	-1.6	-1.0	/
CC(C)(C)N1C(=O)c2ccc(C(=O)Nc3ccc(O)cc3)cc2C1=O	-2	3	-1.4	-4	3.6	-1.9	4.8	10%

The list goes on.
smiles	Beta apoptosis	T cruzi repl	Bfl-1 A1 inh	Calb FLC	AF4-AF9 inh	RanGTP-Impb inh	LANA-H2B inh	Vif A3G
COc1ccc(C2C(C#N)=C(N)Oc3c2c(C)nn3-c2ccccc2)cc1Cn1nc(C)c([N+](=O)[O-])c1C (stereo not drawn)	6	5	-0.6	-6	/	0.6	3.5	4%
O=C(c1ccccc1)c1ccc(OCC(O)CNC2CCCc3ccccc32)cc1 (stereo not drawn)	0	33	-1.3	3	10	-0.9	1.6	/
O=C(COc1ccc(Br)cc1)NCCNC(=O)c1cccnc1	1	-12	-0.2	-6	-0.1	2.1	-4.5	/
COc1ccc(-n2c(N3CCN(C)CC3)nc3sc4c(c3c2=O)CCCCC4)cc1	/	52	0.1	32	/	5.1	-2.1	1%
O=c1[nH]c2cc3c(cc2cc1CN(CCN1CCOCC1)C(=S)NCC1CCCO1)OCO3 (stereo not drawn)	3	4	-0.9	-7	-4.3	-45	-0.2	/
O=C(COc1ccccc1)Nc1ccccc1C(=O)NCc1ccco1	-11	-11	-2.1	6	/	0.4	2.1	5%
CC(=O)c1ccccc1NC(=O)CC1(CC(=O)O)CCCCC1	/	6	0.8	20	-1.2	-1.0	-3.7	/
Cc1ccc2nc(C)cc(C(=O)N3CCCC(CO)(Cc4ccccc4C)C3)c2c1 (stereo not drawn)	-4	29	-0.1	40	-14	1.6	2.7	/
COc1ccc(-c2nc(NC(=O)c3nc4nccc(C)n4n3)sc2C)cc1	4	3	0.3	-3	-1.4	-0.7	-1.7	7%
Cc1ccc(NC(=S)N/N=C2/CCCc3c(C)cc(C)cc32)cc1	8	26	-0.6	4	/	?	-0.2	10%
O=C(Cc1coc2cc(O)ccc12)NNC(=O)c1cccs1	-1	/	0.0	/	3.0	/	0.0	-1%
COc1cccc(CNc2ccc(F)c(Cl)c2)c1O	4	-9	-0.1	3	/	-2.0	-0.4	-3%
COc1cccc(NC(=O)CN2C(=O)C(=O)N(C3CCCC3)C2=O)c1	-5	/	-0.2	/	0.4	/	0.0	2%
COc1ccccc1C(=O)NCCC(=O)NC1CCCCC1C (stereo not drawn)	0	2	0.5	0	-0.1	-1.1	-3.3	6%
CCOC(=O)N[C@H](Cc1c[nH]c2ccccc12)C(=O)NC1CC1	-29	-10	0.4	-8	2.2	3.4	4.2	/
CCOC(=O)Cn1cc(/C=C/[N+](=O)[O-])c2ccccc21	-4	-7	0.3	-7	5.2	4.9	2.7	3%
Cc1c(C)c2ccc(OC(C)C(=O)NCc3ccccn3)cc2oc1=O (stereo not drawn)	8	-3	-2.7	-5	-6.5	-5.5	5.6	/
O=C(CCC(=O)OCC(=O)c1ccc(Cl)cc1Cl)Nc1cccc2cccnc12	/	-14	-0.7	-4	/	0.8	-3.3	1%
